Sa RN4220 lethal = S. aureus RN4220 growth inhibition. OD600, 16 h. inhibition, % (no concentration beside the values). 330,000 compounds, 0.33% hits. AID 1259311;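 active = z-score of -3 or lower and OD600 up to 0.18 on both plates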;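 note: plate controls were untreated cells for no effect and reference antibiotic for full effect; stock transfer was 100 nL into about 80 µL; one replicate is shown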
ugtP null kill = growth inhibition of S. aureus ugtP deletion strain | 330,000 compounds, 0.54% hits | S. aureus RN4220 ugtP deletion, OD600 growth, 16 h; some inactives read as strong as hits | growth inhibition, % (concentration not given with the values) | AID 1259309;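 active = z-score under -3 and OD600 up to 0.15 on both plates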;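 note: plate controls were untreated wells for no effect and antibiotic for full effect; wells of about 80 µL received 100 nL stock; the first replicate is given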
PrP UTR inh = inhibition of PrP 5' UTR reporter expression; cell-based PrP 5' UTR mRNA reporter, plate reader; 340,000 compounds, 0.35% hits; inhibition, % (concentration not given with the values);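 active = every replicate at 50% or more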;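 note: 0 = median of the neutral control wells; tested in H4 reporter cells; numbers are from one replicate; inactives centre near -14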
BJeLR viability = BJeLR cell viability loss. BJeLR (HRASV12) viability, CellTiter-Glo ATP luminescence, 48 h; reference of the scale not given here. inhibition, % (concentration not given with the values). 300,000 compounds, 0.17% hits;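 active = replicate mean above 50%; inconclusive = above 50% but judged a plate artefact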;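 note: 50 nL library stock added to about 25 µL; numbers are from one replicate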
Mtb hypoxia rep = reduces hypoxia-regulated biosensor signal in M. tuberculosis; AID 1159583; 300,000 compounds, 0.1% hits; fluorescence inhibition, % (no concentration beside the values); M. tuberculosis hypoxia-regulated fluorescent reporter, fluorescence;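 active = 35 to 45% if threefold the growth effect, above 45% if 1.5-fold the growth effect; inactive = the rest, general growth blockers included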;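 note: wells of about 50 µL received 100 nL stock; 0% = vehicle wells and 100% = reference inhibitor wells; whole bacteria with a GFP reporter of the hypoxia response; strong numbers were not always called active; many hits fall short of the cut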
Autofluor counter = counter-screen for toxin protease inhibitors: compound fluorescence; AID 624483; 360,000 compounds, 3.1% hits; fluorescence intensity (no concentration beside the values); compound autofluorescence counterscreen, microsphere flow cytometry; hits give high values;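 active = at least 3 SD above the mean of all compounds, about 16000 in these data; inconclusive = too few beads counted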;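 note: 100 nL of 1 mM stock went into each well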
Mtb hypoxia rep growth = recorded beside Mtb hypoxia rep, whose call it bears; growth inhibition, %; measured here: M. tuberculosis growth (absorbance);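 0% = vehicle and 100% = reference antibiotic; read after six days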
An asterisk follows results filed as active; ? = inconclusive; . = no result given.

cpd	SMILES	Sa RN4220 lethal	ugtP null kill	PrP UTR inh	BJeLR viability	Mtb hypoxia rep	Mtb hypoxia rep growth	Autofluor counter
1	N#Cc1c(-c2ccccc2)nc(SCc2cccc(C(F)(F)F)c2)[nH]c1=O	31	18	-25	7	2	-9	3881
2	Cc1cc(C)nc(NS(=O)(=O)c2ccc(NS(=O)(=O)c3ccc(C#N)cc3)cc2)n1	-0.2	-1	-2	-4	14	-24	6116
3	CN(Cc1ccccc1Cl)C(=O)C1CCC(=O)N(CCc2cccc(F)c2)C1 (configuration not stated)	3.7	6	-13	1	2	2	5228
4	COc1cccc(C(=O)OCC(=O)NC(C)CCc2ccccc2)c1O (configuration not stated)	2.4	-2	-14	-2	5	14	3815
5	COP(=O)(OC)c1nc(-c2cccc3ccccc23)oc1NCc1ccccc1	-3.4	-5	-25	3	10	8	9522
6	CCCc1cc(=O)[nH]c(SCC(=O)Nc2nc(-c3ccccc3)cs2)n1	7.3	11	-21	7	0	2	3989
7	Cc1ccc(C2=[N+]([O-])C3(CCCCC/C3=N\NC(N)=O)N(O)C2(C)C)o1 (configuration not stated)	.	.	-6	-4	.	.	2485
8	C=CCN1C(=O)NC(=O)/C(=C/c2cccn2C)C1=O	.	.	-22	11	.	.	3169
9	COc1ccc(S(=O)(=O)Nc2cc(C)on2)cc1	2.5	-1	-31	0	8	-12	3833
10	CCOC(=O)c1cccc(NC(=O)c2cc(C)nn2-c2ccccc2)c1	0.8	3	-4	7	6	7	3932
11	CC(C)CC(OC(=O)c1cccs1)C(=O)NCC1CCCO1 (configuration not stated)	3.8	13	-2	-3	5	0	6655
12	CS/C(=N\S(=O)(=O)c1cccs1)Nc1cccc(Cl)c1C	7.2	1	-1	7	4	12	2398
13	N#CCC(=O)NN=Cc1cn(Cc2ccc(Cl)c(Cl)c2)c2ccccc12	5.6	-11	.	.	10	4	.
14	CC1CN(CCCCOc2ccc(C(C)C)cc2)CC(C)O1 (configuration not stated)	1.8	23	-19	1	-11	12	4351
15	O=C(N/N=C/c1c[nH]c2ccccc12)c1sc2ccccc2c1Cl	.	.	-30	17	.	.	9639
16	Clc1ccc(-c2cc(-c3ccccn3)on2)c(Cl)c1	-0.7	12	37	22	10	11	5306
17	Cc1csc(N/N=C/c2ccc(O)c([N+](=O)[O-])c2)n1	.	.	-21	4	.	.	22477*
18	COc1ccc(NC(=O)C2CCCN(c3cc(C)nc4ncnn34)C2)cc1 (configuration not stated)	6.8	5	-1	-22	10	8	3379
19	CC1=C(C(N)=O)C(c2cccnc2)n2nc(-c3cccc(Cl)c3)nc2N1 (configuration not stated)	-0.6	7	-16	-4	1	4	9930
20	C/C(=C\c1cc(C(=O)O)c(C)o1)CO	2.9	8	-9	3	9	3	5756
21	CC(=O)NCc1ccc(S(=O)(=O)N2CCCN(C)CC2)cc1	1.3	15	-12	-14	-5	2	3520
22	Cc1ccc(NC(=O)C2CCN(C(=O)NC3CCCCC3)CC2)cc1	1.3	3	-9	-1	.	.	4090
23	N#CCC(=O)N/N=C/c1ccc(SCC(=O)Nc2ccccc2)o1	.	.	-39	-1	.	.	4272
24	CSc1nc(C)nc(C2CC2)c1C#N	1.3	6	1	-2	17	14	6219
25	CC1=CCC2C(=O)N(c3cccc(C(=O)N(C)C4CCCCC4)c3)C(=O)C2C1 (configuration not stated)	4.0	-3	-12	-5	-1	2	9085
26	CCCCNC(=O)Cc1c(O)c2ccccc2[nH]c1=O	4.2	-4	-15	0	15	5	9276
27	Cc1cc(C)cc(NC(=S)Nc2ccc(Cl)c(Cl)c2)c1	100*	101*	-13	-5	13	15	2595
28	O=C(/C=C/c1ccco1)NCc1ccco1	.	.	-9	3	.	.	3849
29	O=C(NCCCN1CCOCC1)c1ccc(CS(=O)(=O)Cc2ccc(Cl)cc2)o1	6.0	4	-23	3	1	1	20919*
30	COc1ccc(S(=O)(=O)N2CCC3(CC2)OCCN3S(=O)(=O)c2ccc(OC)cc2)cc1	3.3	16	-28	-3	3	-2	.
31	CC1(C)CC(=O)C2=C(C1)N(C1CCCCC1)C(=O)C2(O)C(F)(F)F (configuration not stated)	9.5	-11	-15	1	-5	8	9533
32	CCOc1ccc(S(=O)(=O)N2CCCC(C(=O)NCc3ccncc3)C2)cc1 (configuration not stated)	0.2	0	-11	14	-8	5	3979
33	COc1ccc(S(=O)(=O)N2CCN(C(=O)Cc3ccsc3)CC2)cc1	2.9	5	-10	.	-1	0	5796
34	Cc1ccccc1CNC(=O)c1ccccc1N	3.4	0	0	-5	7	13	10520
35	COc1cccc(CNS(=O)(=O)c2ccc3c(c2)CC(C)N3C(=O)C2CCC2)c1 (configuration not stated)	9.0	-2	-20	8	0	2	5477
36	FC(F)(F)c1cc(-c2ccc(Cl)cc2)nc2ncnn12	-0.9	3	-3	-1	.	.	.
37	O=[N+]([O-])c1ccc(Oc2cnc3ccccc3n2)cc1	3.7	-6	-2	-4	4	7	2544
38	O=C(NN=Cc1ccc(OC(F)F)cc1OC(F)F)c1cccc(S(=O)(=O)N2CCOCC2)c1	6.6	4	.	.	5	-4	.
39	CCOC(=O)CC(=O)CSc1nc(N)c(C#N)c(-c2ccc(Cl)cc2)c1C#N	-2.0	4	-22	0	7	3	16851*
40	CCOc1ccc(CCNC(=O)CN2C(=O)NC3(CCCC3)C2=O)cc1OCC	2.4	7	-9	0	6	8	5209

Entries of single compounds, looked up by structure. Order of values: Sa RN4220 lethal	ugtP null kill	PrP UTR inh	BJeLR viability	Mtb hypoxia rep	Mtb hypoxia rep growth	Autofluor counter
Listed for O=[N+]([O-])c1ccc(Oc2cnc3ccccc3n2)cc1 : 3.7	-6	-2	-4	4	7	2544
Listed for CC(=O)NCc1ccc(S(=O)(=O)N2CCCN(C)CC2)cc1 : 1.3	15	-12	-14	-5	2	3520
Listed for COc1cccc(CNS(=O)(=O)c2ccc3c(c2)CC(C)N3C(=O)C2CCC2)c1 (configuration not stated) : 9.0	-2	-20	8	0	2	5477

Following part.
cpd	SMILES	Sa RN4220 lethal	ugtP null kill	PrP UTR inh	BJeLR viability	Mtb hypoxia rep	Mtb hypoxia rep growth	Autofluor counter
41	CCOC(=O)N1CCN(C(=O)COc2ccc(S(=O)(=O)NC(C)C)cc2)CC1	9.7	6	-13	1	.	.	5928
42	Cc1nc(C2CC(=O)OC23CCCCC3)cs1 (configuration not stated)	-1.2	1	5	-2	.	.	2585
43	Cc1cccc(C(=O)NCC(=O)N(C)CC(=O)Nc2ccc(N3CCOCC3)cc2)c1	2.1	5	-30	-13	-1	-10	5233
44	CCC(C)N(C)C1CCN(C(=S)Nc2ccc(OC)cc2)CC1 (configuration not stated)	4.7	5	-23	-8	8	0	4343
45	CC1CCC(C(C)C)C(OC(=O)COC(=O)c2cccn2C)C1 (configuration not stated)	3.1	23	-19	3	.	.	3942
46	CCN(CC)CCCNC(=O)c1cc(-c2ccccc2)c(N2CCCCC2)s1	4.2	88*	.	51*	17	11	3689
47	CCn1c(CNC(=O)c2cccs2)n[nH]c1=S	2.6	-1	-11	13	-6	5	2118
48	CCOc1cccc(C(=O)N(Cc2cccc(F)c2)C2CCS(=O)(=O)C2)c1 (configuration not stated)	2.9	7	-3	3	15	6	6680
49	COc1ccc(NC(=O)COC(=O)Cc2ccccc2[N+](=O)[O-])cc1OC	2.0	10	-28	2	5	6	4454
50	Nc1nc(N)c(Br)c(Nc2ccc(Cl)c(Cl)c2)n1	3.2	-27	-15	.	-9	5	3904
51	Cn1cc(Cl)c(C(=O)N2CCN(c3ncccn3)CC2)n1	1.8	2	-7	4	19	12	3855
52	CCc1ccc(C2C(C#N)=C(N)N(N3CCOCC3)C3=C2C(=O)CC(C)(C)C3)s1 (configuration not stated)	4.4	0	-25	-8	1	10	3472
53	CCOC1OC(C(=O)N2CCN(Cc3ccc4c(c3)OCO4)CC2)=CC(c2coc3ccccc3c2=O)C1CCCO (configuration not stated)	2.2	-1	.	.	-4	1	.
54	COc1cc(C(=O)OCC(=O)NCCCc2ccccc2)ccc1OCC(C)C	1.1	11	-21	4	3	2	5570
55	CC1(C)C(C=C(Cl)Cl)C1C(=O)N/N=C/c1ccccc1F (configuration not stated)	.	.	-10	1	.	.	3915
56	O=S(=O)(c1ccc(F)cc1)n1ccc(-c2cccc(OCc3c(F)cccc3Cl)c2)n1	6.6	8	-10	-5	14	10	8461
57	O=C(CSc1ccccc1[N+](=O)[O-])NC1CCS(=O)(=O)C1 (configuration not stated)	0.1	0	-4	2	4	0	2106
58	COc1ccc(CC(=O)c2ccccc2C(=O)O)cc1	3.1	3	-18	6	0	11	12218
59	O=C(COC(=O)Cc1ccc(Cl)cc1)Nc1ccc2[nH]c(=O)[nH]c2c1	3.7	3	-6	-6	5	5	?
60	COc1ccc(S(=O)(=O)N2CCC(C(=O)NCCCN3CCOCC3)CC2)cc1	7.4	9	-14	-2	-8	2	5172
61	CCn1c(O)c(C=Nc2ccccc2)sc1=O	0.7	6	-37	14	15	10	4092
62	CN(c1ccccc1)S(=O)(=O)c1cccc(NC(=O)c2ccc(=O)[nH]c2)c1	3.7	-3	-15	.	-5	-13	3142
63	COc1ccccc1CSc1ncc(-c2ccc([N+](=O)[O-])cc2)[nH]1	-8.2	3	-13	11	-4	0	2563
64	COc1ccc(-c2ncncc2-c2ccccc2)c(O)c1	1.9	3	-17	8	7	0	3659
65	O=C(NN=Cc1c(O)ccc2ccccc12)c1cccc(C(F)(F)F)c1	54	100*	.	.	8	-8	.
66	CC(C)(C)c1ccc(C(=O)NCC(=O)N2CCNC(=O)C2)cc1	1.3	5	-11	-1	2	-2	4286
67	Cn1c(=O)c(C(=O)NC2CCCCCC2)c(O)c2ccccc21	-0.2	7	-22	6	5	-2	3948
68	Cc1ccc([N+](=O)[O-])cc1N=C(c1ccc([N+](=O)[O-])cc1)N1CCOCC1	1.1	-2	-16	2	9	8	2108
69	Cc1ccccc1NC(=O)c1cc(N)ccc1N1CCCCC1	-3.4	-17	-25	.	-4	1	10005
70	Cn1c(=O)cc(SCC(=O)N2CCCC2)c2cc(Cl)ccc21	3.9	2	-24	2	13	4	10479
71	CC(C)C(NC(=O)OCc1ccccc1)C(=O)OCC(=O)N1C(C)CCCC1C (configuration not stated)	2.9	2	-21	2	4	6	3454
72	COc1ccc(CN2C(=O)c3cccnc3C2=O)cc1S(=O)(=O)NCc1ccccc1	-4.1	-5	-7	-8	-9	-13	4127
73	CC1CCc2c(sc(NC(=O)c3cccn3C)c2C(N)=O)C1 (configuration not stated)	-6.2	-11	-76	.	2	9	4340
74	CCOC(=O)/C(C#N)=C/c1ccc(OC(=O)c2ccco2)c(OCC)c1	4.8	12	-12	9	15	12	9744
75	CCCC[n+]1ccn(-c2nc3ccccc3nc2[N-]S(=O)(=O)c2ccc(C)cc2)c1	3.8	-4	-7	5	5	13	5967
76	C=CCN1C(c2ccccc2)=CS/C1=C(\C#N)c1nnc2n1CCCCC2	4.7	8	-70	-14	16	7	5201
77	Cc1ccc(NC(=O)CSc2ccc(-c3ccccn3)nn2)cc1	2.5	7	2	-9	11	-2	4306
78	CC(=O)Nc1ccc(-n2c(C)nc(=O)c(-c3ccccc3)c2C)cc1	-0.7	13	-20	-1	3	1	2926
79	Cc1ccc(CNS(=O)(=O)c2ccc(C(F)(F)F)cc2)n1C	5.9	3	-24	11	8	4	5972
80	COc1ccc(CCNC(=O)C2CC(=O)N(C3CCCC3)C2)cc1OC (configuration not stated)	-3.5	-2	2	2	-2	1	5659
81	CCCc1nc2ccccc2n1C(=S)SC	5.2	6	-3	-4	15	13	4322
82	COc1cc(CN2CCNC(=O)C2CC(=O)NCCCN2CCOCC2)cc(OC)c1 (configuration not stated)	3.1	2	-2	0	2	0	5184
83	CCN(CC)C(=O)Cn1cc(C(=O)C(=O)N(CC)C2CCCCC2)c2ccccc21	-2.3	2	-14	3	6	-3	5374
84	CC1CN(C(C)CO)C(=O)Cc2cc(NC(=O)CCC(F)(F)F)ccc2OC1CN(C)Cc1ccc(-c2ccccc2)cc1 (configuration not stated)	-2.3	-2	.	.	8	14	.
85	CCCCCC1CN(C2CCCCC2)C(=O)C1CC(=O)NCc1ccc(OC)cc1 (configuration not stated)	5.1	2	.	.	9	-2	.
86	COc1cc(S(=O)(=O)N2CCOCC2)cc(C(=O)OCC(=O)NC2CCCCC2)c1OC	4.5	0	-10	.	4	4	3986
